# E coli growth – blocks Escherichia coli growth; OD600 absorbance (concentration not given with the values); OD600, 23 h; hits give low values; 330,000 tested, 0.21% active;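 active = OD600 absorbance below the run mean of sample wells minus 3.6 SD, in any replicate, cut at about 0.56 in these data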;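 note: stock transfer was 300 nL into about 60 µL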
# Vif A3G – inhibitors of Vif binding to APOBEC3G peptide, primary screen, biochemical, TR-FRET, GST-Vif 1-94, biotin-A3G peptide, dose response retest (AID 1117319) | 260,000 tested, 0.57% active | TR-FRET GST-Vif / biotin-A3G peptide binding; higher % means a stronger effect; test concentration not given here; strong numbers were not always called active | one-dose inhibition, %; IC50 in µM for titrated hits;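 active = above the screen mean plus three standard deviations and confirmed in dose response; inconclusive = results disagree or hit not tested in dose response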;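 note: Vif residues 1-94 fused to GST binding biotinylated APOBEC3G peptide 110-148; 0% = full assay without inhibitor and 100% = GST in place of GST-Vif; retest series ran down from 100 µM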
# AF4-AF9 inh – blocks AF4 peptide binding to human AF9; AlphaScreen, biotin-AF4 peptide binding to FLAG-AF9; inhibition, % at 10 µM; 350,000 tested, 0.47% active; AID 651704;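 active = every replicate reaching a set inhibition limit, whatever the replicate mean, cut at about 25% in these data; inconclusive = mean inhibition reaches that limit but some replicates miss it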;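 note: 0% = plate neutral control median and 100% = total signal loss; the record names both 10 and 1 µM as test concentration; the first replicate is given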
# Target sequence (P42568 whole entry, looked up): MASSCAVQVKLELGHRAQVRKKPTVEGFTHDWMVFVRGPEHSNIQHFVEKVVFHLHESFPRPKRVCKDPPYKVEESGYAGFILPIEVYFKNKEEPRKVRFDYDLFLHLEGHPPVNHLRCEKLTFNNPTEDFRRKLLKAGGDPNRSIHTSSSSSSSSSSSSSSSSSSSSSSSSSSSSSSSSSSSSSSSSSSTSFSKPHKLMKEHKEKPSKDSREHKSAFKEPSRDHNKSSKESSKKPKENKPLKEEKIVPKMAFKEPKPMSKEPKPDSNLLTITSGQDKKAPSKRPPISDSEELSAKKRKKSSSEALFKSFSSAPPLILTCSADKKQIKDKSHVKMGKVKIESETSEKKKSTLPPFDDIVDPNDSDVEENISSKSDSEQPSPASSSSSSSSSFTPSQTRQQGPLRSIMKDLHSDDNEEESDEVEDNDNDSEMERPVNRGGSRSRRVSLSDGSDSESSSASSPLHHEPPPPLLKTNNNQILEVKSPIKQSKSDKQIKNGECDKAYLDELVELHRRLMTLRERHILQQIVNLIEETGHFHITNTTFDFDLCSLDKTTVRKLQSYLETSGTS
# HNF4A DNA FP – change in binding of human HNF4 alpha to DNA; P41235; HNF4a-FITC DNA binding, fluorescence polarization, 1 h; activity change, % at 10 µM; 360,000 tested, 0.3% active; AID 1224865; in the data active = activity change above about 30%, passing the limit was not always enough;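 note: controls were the assay level and a saturating level of protein; the project sought stronger binding though the title names inhibitors; some compounds called inactive have numbers as strong as hits; positive values seem to mean higher polarization but the record does not say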
# Target sequence (P41235 whole entry, looked up): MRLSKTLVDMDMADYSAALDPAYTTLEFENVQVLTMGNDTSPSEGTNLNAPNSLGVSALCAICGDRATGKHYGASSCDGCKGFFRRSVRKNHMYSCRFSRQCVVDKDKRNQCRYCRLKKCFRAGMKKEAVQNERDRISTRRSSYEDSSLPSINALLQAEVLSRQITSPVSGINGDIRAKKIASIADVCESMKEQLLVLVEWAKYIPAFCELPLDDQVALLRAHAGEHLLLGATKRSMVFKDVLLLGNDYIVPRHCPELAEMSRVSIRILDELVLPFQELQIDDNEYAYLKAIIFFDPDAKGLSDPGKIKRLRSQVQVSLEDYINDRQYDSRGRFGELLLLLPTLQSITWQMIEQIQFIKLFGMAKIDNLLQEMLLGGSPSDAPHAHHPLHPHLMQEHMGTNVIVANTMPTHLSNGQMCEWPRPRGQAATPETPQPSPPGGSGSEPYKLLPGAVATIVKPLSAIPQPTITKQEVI
# UCH37 DUB inh – human UCH37 deubiquitinating enzyme inhibition; purified proteasome/UCH37, Ub-AMC cleavage fluorescence; 330,000 tested, 0.33% active; inhibition, % (concentration not given with the values); Q9Y5K5;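 active = mean of two replicates above 20%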;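 note: 0% = compound-free wells with enzyme and 100% = wells lacking proteasome; stock transfer was 100 nL into about 20 µL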
#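 Schedule: 30 min plus 25 min, room temperature / Material: human UCH37 within purified proteasomes / Technique: AMC fluorescence intensity at 355/460 nm / Buffer or medium: pH 7.4 Tris-HCl (50 mM) with ovalbumin, ATP-MgCl2, DTT / Controls: wells without proteasome as full block, compound-free enzyme plus substrate as uninhibited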
# RanGTP-Imp inh – disruptors of Ran-importin-beta complex formation – biochemical, FRET, CFP-Ran, YFP-importin-beta, homogeneous, primary screen | 300,000 tested, 1.1% active | AID 2216 | inhibition, % (test concentration not listed) | cell-free CFP-Ran/YFP-importin-beta FRET ratio;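 active = most replicates above 15%; inconclusive = exactly half above 15%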;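 note: 0% = DMSO wells and 100% = Ran loaded with GDP instead of GTP; wells of about 40 µL received 100 nL stock; the first replicate is given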
# FGF22 binding – shifts melting point of recombinant human FGF22 | Q9HCT0 | recombinant FGF22 thermal shift, SYPRO orange fluorescence; percent of sucrose octasulfate shift, DMSO zero | calls only at 9.99 µM | 340,000 tested, 1.5% active;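 active = melting point raised past a set limit in the mean and every replicate; inconclusive = no clear call; three in four hits are not shown here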
# * hit, by the source's call; i = inactive; ? = inconclusive; . = not tested or not shown; + = active, no number; & = joins results of further samples. Some of the compounds tested; the hit share may differ from the screen's.
SMILES,E coli growth,Vif A3G,AF4-AF9 inh,HNF4A DNA FP,UCH37 DUB inh,RanGTP-Imp inh,FGF22 binding
O=C(Nc1ccc2c(c1)OCCO2)C1CCCN1C(=O)Nc1ccccc1 (stereo unspecified),0.647,.,-4.6,-4.0,2.5,0.4,i
CCC(=O)N1CCc2cc(S(=O)(=O)Nc3ccccc3C)ccc21,0.698,-2.5%,-38.7,-0.2,0.0,0.4,i
O=C(Cn1ncn2cccc2c1=O)N1CCCCC1,0.688,-1.3%,.,1.9,0.8,0.9,.
COCCNC(=S)Nc1ccccc1Cc1ccccc1,0.693,-16.7%,0.4,-0.5,0.8,4.0,i
CC(=O)N1CCc2cc(Br)cc(S(=O)(=O)NCc3ccccn3)c21,0.753,?,.,4.2,-1.6,0.2,.
CCOc1ccc(S(=O)(=O)N2CCCC(C(=O)N3CCOCC3)C2)cc1Cl (stereo unspecified),0.7,.,1.3,0.4,5.0,-0.4,i
COC(=O)CCNC(=O)c1ccc2nc(Cc3ccc(OC)cc3)oc2c1,0.65,.,-5.0,0.1,2.7,-2.0,i
Cn1nc(C(=O)OCC(=O)NC2CCS(=O)(=O)C2)c2ccccc2c1=O (stereo unspecified),0.677,-6.5%,-4.8,1.2,1.3,-1.4,i
CCOC(=O)c1[nH]c(C)c(C(=O)NCCC2=CCCCC2)c1C,0.755,8.1%,.,1.5,-2.6,4.1,.
COc1cc(/C=C/C(=O)Nc2ccc(OC)c(S(=O)(=O)N3CCOCC3)c2)ccc1OC(F)F,0.662,.,2.2,1.9,5.3,.,+
N#CC1=C(N)Oc2cc3ccccc3cc2C1c1cccnc1 (stereo unspecified),0.736,0.5%,.,-2.0,2.0,-2.4,.
COc1cc(/C=N/NC(N)=O)ccc1OC(=O)c1ccco1,.,-5.3%,5.4,5.8,.,3.1,.
O=S(=O)(NCc1ccccc1)c1ccc(S(=O)(=O)N2CCCC2)cc1,0.706,11.6%,-1.6,-6.4,2.8,-0.7,i
CC(C)(C)C(=O)CSc1ncnc2sc3c(c12)CCC3,0.648,.,-5.2,3.3,4.6,-5.9,.
O=C(c1ccc(NS(=O)(=O)c2cccs2)cc1)N1CCCCC1,0.738,?,.,1.4,1.9,5.0,.
CCn1nc(C)c(NC(=O)c2cc(Br)ccc2Cl)c1C,0.722,21.5%,-1.8,4.4,6.6,-4.6,i
COc1cc(NC(=O)c2cc(S(=O)(=O)N3CCc4ccccc43)cn2C)cc(OC)c1OC,0.677,.,2.1,2.2,1.1,-0.9,i
O=C(CN1CCN(c2ccccc2)CC1)Nc1ccc(OCc2ccccc2)cc1,0.718,-1.9%,.,-2.2,4.6,0.2,.
Cc1ccc(C(=O)NCC2CCCO2)o1 (stereo unspecified),0.725,3.1%,.,-4.8,2.2,0.3,.
CC1=C(C(=O)Nc2ccccn2)C(c2ccccc2Cl)NC(=S)N1 (stereo unspecified),0.684,-8.8%,-5.9,1.8,4.4,1.9,i
CC1CC(C)CN(CCCNC(=O)CCC(=O)N2CCOc3ccccc32)C1 (stereo unspecified),0.764,.,7.2,7.0,1.7,-0.5,i
Cc1nn(CC2CC2)c(=O)n1-c1ccc(Cl)cc1,0.707,-8.2%,0.4,4.6,5.6,1.3,i
Cc1nn2c(N)c(C#N)cnc2c1-c1ccc(Cl)cc1,0.747,-11.2%,.,0.1,-7.1,5.3,.
Cc1ccc(Cl)cc1NC(=O)c1ccccn1,0.656,2.9%,-2.6,-1.1,3.1,1.3,i
C[C@@H]1CN([C@H](C)CO)C(=O)CCCn2cc(nn2)CO[C@H]1CN(C)C(=O)Nc1ccc(C(C)(C)C)cc1,.,.,-0.6&-1.6,0.9,.,.,i
# Later entries
SMILES,E coli growth,Vif A3G,AF4-AF9 inh,HNF4A DNA FP,UCH37 DUB inh,RanGTP-Imp inh,FGF22 binding
CCC(=O)NC(c1cccs1)c1ccc2cccnc2c1O (stereo unspecified),0.636,18.9%,?,-0.6,0.7,0.4,i
Cc1ccc(N2NC(C)(c3cccs3)NC2=S)cc1 (stereo unspecified),0.67,24.9%,.,-0.8,1.4,-3.9,.
CCS(=O)(=O)c1ccc2c(c1)NC(=O)C(CCCl)O2 (stereo unspecified),0.704,-0.7%,-1.8,0.2,5.5,-0.8,i
O=C(Nc1ccc(Cl)cc1Cl)C1=Cc2ccccc2OC1,0.725,1.7%,.,-2.2,2.4,6.3,.
O=C(CSc1nncn1-c1ccccc1F)NC1CCCCC1,0.713,8.1%,1.2,-1.0,-2.1,.,i
CCOc1ccc(-c2c(C(=O)N/N=C/c3cccs3)nnn2-c2nonc2N)cc1,.,-6.2%,-2.1,0.8,.,6.6,i
CN1C(=O)Cc2cc(S(=O)(=O)N3CCN(c4ccc(Cl)cc4)CC3)ccc21,0.666,-3.6%,-0.6,-1.3,2.5,1.0,i
CC1CC(C)CN(S(=O)(=O)N2CCCC(C(=O)NCCc3ccccc3)C2)C1 (stereo unspecified),0.657,-4.5%,-5.8,2.3,0.2,-1.1,i
NC(=O)CC(NC(=O)Cc1ccc(Cl)cc1)c1ccc(NC2CCCC2)c([N+](=O)[O-])c1 (stereo unspecified),0.615,.,2.0,15.5,0.6,-5.8,i
COc1cccc(/C=N/n2cncn2)c1OCC#N,.,19.2%,.,1.2,.,4.4,.
N#CCSc1ccc(-c2nc3ccccc3[nH]2)cn1,0.648,0.2%,-2.5,-0.4,-6.1,3.3,i
COc1ccc(C(=O)O)cc1S(=O)(=O)NCCN(C)C,0.671,3.3%,-12.5,-1.7,3.0,-0.9,i
O=C(NCC1CCCO1)C1CC(=O)N(c2ccccc2)C1 (stereo unspecified),0.69,.,-6.1,1.1,1.8,2.4,i
Cc1cc(C)nc(NC(=O)/C=C/c2ccccc2Cl)n1,0.768,0.3%,.,-0.5,1.2,-0.5,.
CC(=O)Nc1cccc(NC(=O)CSc2nc3c(c(=O)n(C)c(=O)n3C)n2C)c1,0.695,.,-18.6,1.4,3.6,3.6,i
COc1cc2nc(N3CCN(c4cc(C)ccc4C)CC3)nc(N)c2cc1OC,0.598,.,22.9,3.1,-64.2,-0.2,i
NNC(=O)c1cc2cc3ccccc3nc2s1,0.676,5.1%,2.5,4.2,3.6,0.6,i
COc1ccc(NC(=S)N(CCCN2CCC(C)CC2)Cc2cccs2)cc1Cl,0.699,.,4.4,0.1,4.5,-0.5,i
O=C(c1ccc(C#Cc2ccccc2)o1)N1CCN(c2ccccn2)CC1,0.696,-4.2%,.,0.8,1.4,3.7,.
O=C(Nc1ccc(Cl)cc1)N[C@@H]1CC[C@H](CCNS(=O)(=O)c2ccccc2F)O[C@@H]1CO,.,.,-1.1&4.5,-0.9,.,.,i
Cc1cc(NCCCn2ccnc2)n2ncc(-c3ccc(Cl)cc3)c2n1,0.651,4.8%,.,2.6,-141.4,2.8,.
CCOc1ccc(CNC(=O)Cn2ccc3cc(S(=O)(=O)N4CCCCCC4)ccc32)cc1,0.706,.,-3.4,0.1,3.1,2.1,i
CC1Cc2ccccc2N1C(=O)CSc1nnnn1-c1ccc2c(c1)OCCO2 (stereo unspecified),0.752,-5.9%,.,-1.2,3.5,-1.4,.
Cc1cc(=O)[nH]c(N2CCOCC2)n1,0.697,15.4%,-0.8,2.0,3.2,-0.4,i
c1ccc(Nc2n[nH]nc2-c2ccccc2)cc1,0.671,-2.2%,.,-0.7,-0.6,2.2,.

# A different layout for some results above.
CC1CC(C)CN(S(=O)(=O)N2CCCC(C(=O)NCCc3ccccc3)C2)C1 (stereo unspecified)
  E coli growth = 0.657; Vif A3G = -4.5%; AF4-AF9 inh = -5.8; HNF4A DNA FP = 2.3; UCH37 DUB inh = 0.2; RanGTP-Imp inh = -1.1; FGF22 binding = i

O=C(NCC1CCCO1)C1CC(=O)N(c2ccccc2)C1 (stereo unspecified)
  E coli growth = 0.69; Vif A3G = .; AF4-AF9 inh = -6.1; HNF4A DNA FP = 1.1; UCH37 DUB inh = 1.8; RanGTP-Imp inh = 2.4; FGF22 binding = i

# Later entries:
SMILES,E coli growth,Vif A3G,AF4-AF9 inh,HNF4A DNA FP,UCH37 DUB inh,RanGTP-Imp inh,FGF22 binding
C=CCn1c(SCC(=O)Nc2sc3c(c2C#N)CCC(C)C3)nc2cc(C(=O)O)ccc2c1=O (stereo unspecified),0.715,5.2%,-2.6,-4.8,0.2,.,i
[O-][n+]1c2ccccc2c2n1CCN1CCOC21c1ccc(Cl)cc1 (stereo unspecified),0.572,.,.,16.4,5.9,.,.
Cc1cc([N+](=O)[O-])ccc1NC(=O)CN1CCN(Cc2ccccc2)CC1,0.68,0.2%,1.2,-3.6,1.7,0.1,.
Cc1cc(-c2n[nH]c(=S)n2-c2ccccc2)nn1C,0.701,.,1.3,-3.9,4.9,2.4,i
O=C(c1cc(S(=O)(=O)N2CCN(c3ccccc3)CC2)ccc1Cl)N1CCCCCCC1,0.719,-0.2%,1.1,0.8,4.1,-1.4,i
S=C1NCCOCCNC(=S)NCCOCCOCCN1,0.73,10.7%,0.2,3.6,5.5,-1.9,i
CCCc1cc(N2CCCC(C(=O)Nc3c(OC)cccc3OC)C2)n2ncnc2n1 (stereo unspecified),0.612,1.9%,.,-3.8,2.9,-0.4,.
COC(=O)c1ccc(CSc2nccn2C)cc1,0.683,-1.7%,.,-0.6,2.7,-1.4,.
O=C(NCc1ccc(Cl)c(Cl)c1)c1ccco1,0.662,15.0%,.,-4.8,2.0,4.9,.
O=C(CN1C(=O)NC2(CCCC2)C1=O)OCc1cc(=O)n2cc(Br)ccc2n1,0.704,-11.6%,6.1,-12.2,-7.7,1.1,i
Cc1cccc(CN(CC(=O)N/N=C/c2ccco2)S(=O)(=O)c2ccc(Cl)cc2)c1,.,9.5%,.,-2.4,.,-2.9,.
CCN(C(=O)CSc1nnc(SC(C)C)s1)C1CCS(=O)(=O)C1 (stereo unspecified),.,-8.4%,-3.2,3.3,.,.,i
O=C(Nc1ccccc1N1CCCCC1)c1ncoc1-c1ccc(F)cc1,0.76,-2.3%,.,5.2,-2.4,2.4,.
Cc1ccc(-c2csc(C(C#N)=C(O)CN3CCN(C(=O)c4ccco4)CC3)n2)cc1,0.661&0.741,3.9%,2.5,5.3,5.6&4.7,.,i
Fc1cccc(Cc2c(-c3ccc(Cl)cc3)nc3c(Cl)cc(C(F)(F)F)cn23)c1,.,.,-1.1,1.1,.,.,i
O=C(NNC(=O)C1CCCCC1)C(=O)NC1CCCCC1,0.678,-2.4%,.,1.2,3.3,2.6,.
CCOc1ccccc1NC(=O)CSc1nc2nc(-c3cccs3)cc(C(F)(F)F)c2c(=O)[nH]1,0.675,28.9%,3.1,-3.0,-31.4,3.5,i
C/C(=N/NC(=O)c1ccoc1C)c1ccc(N2CCOCC2)cc1,.,-1.2%,1.7,3.1,.,6.3,i
Cc1ccc(-c2nc3ncccc3o2)cc1NC(=O)c1ccc2c(c1)OCO2,.,.,12.2,-2.2,.,.,i
COc1ccc(NC(=O)CN(c2cccc(C(F)(F)F)c2)S(C)(=O)=O)cc1OC,0.687,4.1%,.,1.1,2.1,3.0,.
CCCCn1nnnc1SCC(=O)Nc1ccc2c(c1)OCO2,0.695,1.5%,.,2.9,6.1,3.6,.
CC1CCCCC1NC(=O)CCS(=O)(=O)c1cc2c(cc1Cl)NC(=O)CO2 (stereo unspecified),0.684,.,-21.6,5.3,2.7,9.2,i
COc1ccc(N(CC(=O)Nc2ccccc2C(=O)NCc2ccco2)S(C)(=O)=O)cc1,0.707,6.8%,11.5,2.4,5.0,-1.8,i
C=CCSC1=N/C(=C\c2cc(OC)c3c(c2)OCO3)C(=O)S1,.,16.5%,.,-15.3,2.4,12.0,.
Clc1cc(Cl)cc(Nc2ccccc2CN(C/C=C/c2ccc3c(c2)OCO3)Cc2ccccc2)c1,.,.,-0.9,-4.5,.,.,i
CC[C@@H]1C=C(C(=O)O)[C@H](c2ccc(F)cc2)N1S(=O)(=O)c1ccc(C)cc1,0.684,-11.1%,-3.6,1.0,1.4,.,i

# Compound activity as filed in PubChem.
